High-throughput results from PubChem.
PrP UTR inh = suppresses PrP 5' UTR mRNA reporter expression | inhibition, % (test concentration not listed) | hit rate 0.35% among 340,000 | cell-based PrP 5' UTR mRNA reporter, plate reader;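 active = every replicate at 50% or more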;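 note: 0 = median of the neutral control wells; tested in H4 reporter cells; numbers are from one replicate; inactives centre near -14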
Mtb hypoxia inh = inhibitors of hypoxia-regulated fluorescent reporter in Mycobacterium tuberculosis | hit rate 0.1% among 300,000 | M. tuberculosis hypoxia-regulated fluorescent reporter, fluorescence | fluorescence inhibition, % (no concentration beside the values);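 active = 35 to 45% if threefold the growth effect, above 45% if 1.5-fold the growth effect; inactive = the rest, general growth blockers included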;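 note: wells of about 50 µL received 100 nL stock; 0% = vehicle wells and 100% = reference inhibitor wells; whole bacteria with a GFP reporter of the hypoxia response; strong numbers were not always called active; many hits fall short of the cut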
Bead autofluor = counter-screen for toxin protease inhibitors: compound fluorescence; compound autofluorescence counterscreen, microsphere flow cytometry; active compounds read high; hit rate 3.1% among 360,000; fluorescence intensity (test concentration not listed);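 active = at least 3 SD above the mean of all compounds, about 16000 in these data; inconclusive = too few beads counted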;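 note: 100 nL of 1 mM stock went into each well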
BJeLR viability = kills HRASV12-expressing BJeLR cells | hit rate 0.17% among 300,000 | BJeLR (HRASV12) viability, CellTiter-Glo ATP luminescence, 48 h; reference of the scale not given here | inhibition, % (no concentration beside the values) | AID 1554;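 active = replicate mean above 50%; inconclusive = above 50% but judged a plate artefact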;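 note: 50 nL library stock added to about 25 µL; numbers are from one replicate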
ugtP null kill = kills S. aureus RN4220 lacking UgtP; S. aureus RN4220 ugtP deletion, OD600 growth, 16 h; some inactives read as strong as hits; growth inhibition, % (test concentration not listed); hit rate 0.54% among 330,000;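 active = z-score under -3 and OD600 up to 0.15 on both plates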;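 note: plate controls were untreated wells for no effect and antibiotic for full effect; wells of about 80 µL received 100 nL stock; the first replicate is given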
RN4220 kill = kills Staphylococcus aureus RN4220; inhibition, % (concentration not given with the values); S. aureus RN4220 growth, OD600, 16 h; hit rate 0.33% among 330,000;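 active = z-score of -3 or lower and OD600 up to 0.18 on both plates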;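 note: plate controls were untreated cells for no effect and reference antibiotic for full effect; stock transfer was 100 nL into about 80 µL; one replicate is shown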
Mtb hypoxia inh growth = also measured in Mtb hypoxia inh; calls as there; growth inhibition, %; measured here: M. tuberculosis growth (absorbance);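 0% = vehicle and 100% = reference antibiotic; read after six days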
* marks the source's active call; other numbers are inactive results; ? = inconclusive; . = no result given.

SMILES | PrP UTR inh | Mtb hypoxia inh | Mtb hypoxia inh growth | Bead autofluor | BJeLR viability | ugtP null kill | RN4220 kill
Cc1cccc(NC(=O)c2onc3c2CCCC3)n1 | 48 | 3 | -2 | 9064 | 48 | 3 | 0.3
CC(C)CNS(=O)(=O)c1ccc(CCC(=O)N2CCC(C(N)=O)CC2)cc1 | -7 | 3 | 16 | 3100 | -7 | 9 | -0.5
Cc1csc(C(=O)O)c1-c1c(C)csc1C(=O)O | 14 | 14 | 14 | 1955 | -3 | 3 | 2.4
O=C(NCC(=O)N1CCCCCCC1)c1ccc(Cl)cc1 | -8 | 0 | -1 | 2994 | . | 11 | 4.4
Cc1cccc(NCC(O)Cn2cnc3c2c(=O)n(C)c(=O)n3C)c1 (stereo not drawn) | 12 | . | . | 3073 | -15 | 3 | -1.4
CCC(CO)N=CC1=C(O)CC(c2ccccc2)CC1=O (stereo not drawn) | 1 | 3 | -3 | 2923 | 4 | 6 | 2.4
COc1ccc(CN(C)C(=O)c2ccccc2Sc2ccccc2C#N)cc1OC | 6 | 13 | -11 | 5972 | 3 | 5 | 3.4
COc1ccc(Cl)cc1NC(=S)NCCSc1ccc(C)cc1 | -1 | -1 | 13 | 2454 | -1 | -28 | -9.2
O=C(CSc1nc2ccccc2o1)NC(=O)NCc1ccccc1 | -21 | 4 | 0 | 3378 | -4 | -20 | 3.0
C=C(C)C(O)COc1c2occc2c(OC)c2ccc(=O)oc12 (stereo not drawn) | -8 | . | . | 5643 | . | 2 | 3.0
C=C(C)Cn1c(=O)c2c(nc3n2CCN3c2cccc(Cl)c2C)n(C)c1=O | -7 | 2 | -2 | 3802 | 6 | 0 | -1.2
OC(COCCC12CC3CC(CC(C3)C1)C2)CN1CCCCC1 (stereo not drawn) | -18 | 5 | 1 | 10094 | 27 | -2 | 0.1
C[N+]12CCC(CC1)C(C(O)(c1ccccc1)c1cccs1)C2 (stereo not drawn) | -17 | 6 | 6 | 5761 | 3 | 3 | 3.9
CN(CCNC(=O)c1ccc(/C=N/O)nc1)Cc1ccccc1 | -19 | . | . | 2482 | -1 | . | .
CC(C)OCCCNC(=O)Cn1ccc2cc(S(=O)(=O)N3CCCCC3)ccc21 | -21 | -2 | -7 | 6091 | 4 | -3 | -0.4
CCc1c(O)nc(SCC(=O)Nc2ccc(C)cc2)n(C2CCCCC2)c1=O | -15 | 7 | 13 | 12863 | 1 | -5 | 2.2
CC(C)(C)NS(=O)(=O)c1ccc(CCC(=O)N2CCCCC2)cc1 | -17 | 5 | -6 | 6796 | -3 | 7 | 4.5
Cc1cc(Cl)ccc1NC(=S)N1CCN(C(=O)c2ccco2)CC1 | -13 | 5 | 8 | 5657 | 6 | 1 | -2.7
NCCCCC1CNC(=O)C(=O)N1CCc1cc(C(F)(F)F)cc(C(F)(F)F)c1 (stereo not drawn) | . | 17 | 4 | . | . | 2 | 2.8
CON=CC1C(=O)NN=C1c1ccccc1 (stereo not drawn) | . | 11 | 1 | . | . | 9 | 3.6
O=C(O)/C=C/c1ccc2c(-c3ccccc3)onc2c1 | -16 | . | . | 2505 | -29 | . | .
COc1ccccc1C(C)NC(=O)CCOc1cccc(C)c1 (stereo not drawn) | -16 | 6 | 7 | 3274 | -19 | 3 | 14
CCOC(=O)c1cnc(N2CCOCC2)[nH]c1=O | -18 | 4 | 8 | 5783 | 1 | -1 | 4.6
Cc1nc2cc(NS(=O)(=O)c3cccc(F)c3)ccc2s1 | -64 | -3 | 7 | 4379 | . | -14 | 1.5
O=C(NCCN1CCCC1)c1cccc(Cl)c1 | -11 | 15 | 6 | 2504 | -2 | 1 | 2.5
COc1ccc(NC(=O)CNS(=O)(=O)c2ccc(Cl)cc2)cc1OC | -28 | 2 | 2 | 7580 | 6 | 5 | 5.9
O=C1CC(Nc2ccccc2)C(=O)N1Cc1ccccc1 (stereo not drawn) | -7 | . | . | 4763 | 10 | 6 | 2.7
CC(C)n1c(SCC(=O)NC2CC2)nnc1-c1ccco1 | -6 | 6 | 6 | 5206 | -6 | 4 | 2.3
Cc1oc(CC(C)C)cc1C(N)=O | -11 | 1 | -17 | 3443 | 8 | 4 | -0.2
Cc1ccccc1C(=O)NCC(C)NC(=O)c1ccccc1C (stereo not drawn) | -16 | -9 | 4 | 5607 | -10 | 2 | 3.6

Quoted at random: 7 entries already listed
SMILES | PrP UTR inh | Mtb hypoxia inh | Mtb hypoxia inh growth | Bead autofluor | BJeLR viability | ugtP null kill | RN4220 kill
O=C(O)/C=C/c1ccc2c(-c3ccccc3)onc2c1 | -16 | . | . | 2505 | -29 | . | .
CON=CC1C(=O)NN=C1c1ccccc1 (stereo not drawn) | . | 11 | 1 | . | . | 9 | 3.6
Cc1cc(Cl)ccc1NC(=S)N1CCN(C(=O)c2ccco2)CC1 | -13 | 5 | 8 | 5657 | 6 | 1 | -2.7
Cc1ccccc1C(=O)NCC(C)NC(=O)c1ccccc1C (stereo not drawn) | -16 | -9 | 4 | 5607 | -10 | 2 | 3.6
CC(C)n1c(SCC(=O)NC2CC2)nnc1-c1ccco1 | -6 | 6 | 6 | 5206 | -6 | 4 | 2.3
NCCCCC1CNC(=O)C(=O)N1CCc1cc(C(F)(F)F)cc(C(F)(F)F)c1 (stereo not drawn) | . | 17 | 4 | . | . | 2 | 2.8
CCc1c(O)nc(SCC(=O)Nc2ccc(C)cc2)n(C2CCCCC2)c1=O | -15 | 7 | 13 | 12863 | 1 | -5 | 2.2

The results go on.
SMILES | PrP UTR inh | Mtb hypoxia inh | Mtb hypoxia inh growth | Bead autofluor | BJeLR viability | ugtP null kill | RN4220 kill
COC(=O)c1ccc(CN2C(=O)c3ccccc3C2=O)o1 | -20 | -4 | -3 | 5851 | 0 | 7 | 7.8
O=C(CSCc1ccccc1Br)N/N=C/c1ccc(OCC(=O)N2CCCCC2)cc1 | -15 | . | . | 2655 | 11 | . | .
O=C(c1cccs1)N1CCN(S(=O)(=O)c2cccc(Cl)c2Cl)CC1 | -16 | -4 | -3 | 6027 | . | 4 | 1.9
O=C(COC(=O)CCOc1ccccc1)Nc1cc(S(=O)(=O)N2CCCCC2)ccc1Cl | -11 | 6 | -11 | 3999 | 2 | 8 | 6.2
CN1CC(=O)N(CC(=O)Nc2ccc3c(c2)CCC3)C1=O | -21 | -2 | 7 | 4465 | 6 | -7 | 1.9
CC(=O)Nc1sc2c(c1C(c1ccccc1)N1CCOCC1)CCCC2 (stereo not drawn) | -15 | -6 | 2 | 3154 | 0 | -4 | 3.9
Cc1cc(C)n(C(=O)CNC(=O)c2ccccc2F)n1 | 1 | . | . | 5046 | -4 | . | .
Cc1ccc(-c2nc(SCC(=O)Nc3cc(C)on3)c3c(=O)n(C)c(=O)n(C)c3n2)cc1 | -2 | 9 | 3 | 4301 | 13 | 0 | 6.6
Cc1cc(C)c(NC(=O)C2CCN(C(=O)c3ccco3)CC2)c(C)c1 | -7 | 7 | 1 | 4265 | -10 | -1 | 3.1
CCCCn1c(NS(=O)(=O)c2ccc(C)cc2)c(C(=O)OCC)c2nc3ccccc3nc21 | -21 | . | . | 8987 | -2 | . | .
CCCC(=O)Nc1ccc(C(=O)N/N=C/c2ccc([N+](=O)[O-])o2)cc1 | 22 | . | . | 2449 | 122* | . | .
COc1ccc(Cn2nnnc2C(C(C)C)N2CCN(c3ccccc3OC)CC2)cc1 (stereo not drawn) | -12 | . | . | 4741 | 13 | 0 | -1.6
C#C[C@]1(O)CC[C@H]2[C@@H]3CCc4cc(OC)ccc4[C@H]3CC[C@@]21C | -20 | . | . | 6479 | 16 | . | .
Cc1cc(N)c(-n2cc3c(=O)n(C)c(=O)n(C)c3c2)cc1C | -6 | . | . | 2144 | 9 | -1 | 2.7
Cc1ccccc1S(=O)(=O)Nc1ncnc2sccc12 | -18 | 4 | -4 | ? | . | 4 | 4.1
Cc1cc(C)c(NC(=O)CS(=O)CC(=O)NC2CCCc3ccccc32)c(C)c1 (stereo not drawn) | -14 | -4 | -10 | 3718 | 2 | -4 | -3.1
CCCN(CC(=O)Nc1ccccc1C)C(=O)c1ccc(S(=O)(=O)N2CCCC2)cc1 | 13 | 4 | 0 | 6116 | -3 | 2 | 2.7
COCc1cc(C)nc(Nc2cc(C)ccc2C)c1C#N | -17 | -2 | 6 | 10833 | 6 | 2 | 1.7
CC(=O)Nc1ccc(S(=O)(=O)N(C)CCOCc2ccccc2)cc1 | 9 | . | . | 2602 | 11 | 7 | 4.2
CCN1CCN(Cc2nc3ccc([N+](=O)[O-])cc3c(=O)n2-c2ccc(OC)cc2OC)CC1 | -11 | 10 | 4 | 3817 | 7 | 9 | 2.5
COc1ccc(CCNC(C)CCc2ccc(OC)cc2)cc1 (stereo not drawn) | -15 | -2 | -2 | 10633 | -8 | 5 | -1.5
CCCCn1c(SCC(N)=O)nc2sc3c(c2c1=O)CCC3 | -7 | 17 | 6 | . | 0 | 13 | 3.7
CC1(c2nnc(-c3ccc(F)cc3)o2)CC(c2ccc([N+](=O)[O-])cc2)=NO1 (stereo not drawn) | -6 | -5 | 1 | 2958 | 6 | 0 | 4.7
O=C(CSCc1ccccc1)N1CCN(Cc2ccc3c(c2)OCO3)CC1 | -23 | . | . | 4447 | 3 | 3 | 2.2
CCC(C)(C)NC(=O)C(c1cccc(OC)c1OC)N(CCC(C)C)C(=O)CCC(=O)Nc1cc(C)on1 (stereo not drawn) | -3 | 2 | 11 | 1993 | -1 | 1 | 1.5
COc1ccc(C2C(C(C)=O)=C(C)Nc3ncnn32)cc1 (stereo not drawn) | -8 | 8 | 9 | 4216 | 4 | 2 | 2.2
CC(C)Cc1nnc(NC(=O)CCC(=O)N2CCN(Cc3ccccc3)CC2)s1 | -13 | 7 | -3 | 5500 | -4 | 3 | 0.6
C1CCN(CC2CCCCN2)CC1 (stereo not drawn) | -14 | 7 | 6 | 4011 | . | 3 | 4.3
CCOc1ccc(Br)cc1S(=O)(=O)N1CCC(C(N)=O)CC1 | -22 | -1 | 6 | 3490 | -6 | 8 | 12
COc1ccc(NC(=O)c2cc(S(=O)(=O)N3CCCC3)ccc2OC)cc1 | -16 | 13 | 5 | 5560 | -2 | 4 | 3.3
Cc1ccc2nc(SCC(=O)N3CCOCC3)[nH]c2c1 | -53 | 8 | 5 | 3642 | -6 | -5 | 8.1
CCCCCC(=O)Nc1cccc(C2=NOC3(C2)C[C@H](C(N)=O)N(C(=O)CC)C3)c1 (stereo partly drawn) | -23 | . | . | 3860 | -3 | . | .
COc1cc2ccccc2cc1C(=O)N(CCN(C)C)c1nc2c(F)cc(F)cc2s1 | -28 | 4 | 3 | 6134 | -8 | -5 | -11
COc1ccc(C(NC(=O)c2ccc(=O)[nH]c2)C(=O)Nc2ccc(C(C)C)cc2)cc1 (stereo not drawn) | -14 | -6 | -2 | 5173 | -8 | 19 | 6.9
COc1cc(C(c2sc3nc(C)nn3c2O)N2CCc3ccccc3C2)cc(OC)c1OC (stereo not drawn) | -2 | -5 | 6 | 4421 | 9 | -1 | -15
CCOC(=O)C(NC(=O)CC)(Nc1ccc(C(O)(C(=O)OCC)C(F)(F)F)cc1C)C(F)(F)F (stereo not drawn) | -17 | 6 | 4 | 7992 | -4 | -12 | 35
O=C(c1c(F)c(F)c(F)c(F)c1F)N(Cc1ccccc1)Cc1ccccc1 | 19 | . | . | ? | -2 | 7 | -5.3
COc1ccc(-c2csc3ncnc(NCCCO)c23)cc1 | 13 | -1 | 16 | 2896 | 2 | 1 | 2.6
Cc1ccc(S(=O)(=O)c2c(C)nn(C(C)(C)C)c2OC(=O)c2ccco2)cc1 | -15 | . | . | 2112 | 8 | 9 | 6.3
CC1(C)OC(c2ccccc2)=C/C(=C/C=Nc2ccccc2)O1 | -37 | . | . | 3229 | -2 | . | .
O=C(C[N+]12CCN(CC1)CC2)NCCc1ccc(Cl)cc1Cl | -10 | 7 | 4 | 3720 | -2 | 2 | 2.8
O=C(O)CNS(=O)(=O)c1ccc2c(c1)C(=O)c1cc(S(=O)(=O)NCC(=O)O)ccc1-2 | -10 | 19 | 4 | 3877 | -3 | 9 | 2.4
COc1ccc(-c2coc3c(C)c4oc(=O)c(CCC(=O)O)c(C)c4cc23)cc1 | -15 | 21 | 6 | 4124 | -8 | -2 | 35
CCOC(=O)N1CCN(C(=S)NC(=O)c2ccnn2C)CC1 | -13 | -1 | -3 | 2314 | -12 | 0 | 4.3
COc1ccc(C(=O)/C=C/N(C)C)cc1 | -22 | 7 | 5 | 9250 | -5 | -4 | 2.9

An unsorted share of the library; 4% or so of the library scored in one or more.
